HNF4A DNA FP: change in binding of human HNF4A to DNA, primary screen, biochemical, fluorescence polarization, FITC-DNA; Hepatocyte nuclear factor 4-alpha (Homo sapiens), P41235; 1 h; activity change, % at 10 µM; actives 0.3% (n = 360,000); AID 1224865, 2016; in the data active means activity change above about 30%, passing the limit was not always enough;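 further: controls were the assay level and a saturating level of protein; the project sought stronger binding though the title names inhibitors; some compounds called inactive have numbers as strong as hits; positive values seem to mean higher polarization but the record does not say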
Target sequence (P41235 whole entry, looked up): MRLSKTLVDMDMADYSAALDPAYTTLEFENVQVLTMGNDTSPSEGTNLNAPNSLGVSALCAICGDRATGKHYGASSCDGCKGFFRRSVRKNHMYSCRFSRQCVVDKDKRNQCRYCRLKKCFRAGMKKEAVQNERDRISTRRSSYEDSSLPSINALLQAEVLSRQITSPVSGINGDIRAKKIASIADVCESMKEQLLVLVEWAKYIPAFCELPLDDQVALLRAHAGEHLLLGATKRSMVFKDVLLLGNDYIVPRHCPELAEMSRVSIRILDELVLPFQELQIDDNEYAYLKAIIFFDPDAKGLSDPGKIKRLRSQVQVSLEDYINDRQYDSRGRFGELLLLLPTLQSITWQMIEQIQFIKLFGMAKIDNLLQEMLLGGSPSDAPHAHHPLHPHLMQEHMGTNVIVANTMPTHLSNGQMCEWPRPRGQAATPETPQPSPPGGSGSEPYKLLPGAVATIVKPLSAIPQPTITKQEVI
Ecoli growth: E. coli growth inhibition, primary screen, OD600; Escherichia coli growth, 23 h; hits give low values; OD600 absorbance (test concentration not listed); actives 0.21% (n = 330,000); AID 1053175, 2014;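 active means OD600 absorbance below the run mean of sample wells minus 3.6 SD, in any replicate, cut at about 0.56 in these data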;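 further: stock transfer was 300 nL into about 60 µL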
Vif TR-FRET: inhibitors of Vif binding to APOBEC3G peptide, primary screen, biochemical, TR-FRET, GST-Vif 1-94, biotin-A3G peptide, dose response retest (AID 1117319); Virion infectivity factor (Human immunodeficiency virus type 1 group M subtype B (isolate …; TR-FRET GST-Vif / biotin-A3G peptide binding; higher % means a stronger effect; test concentration not given here; strong numbers were not always called active; inhibition, %, or IC50 in µM where a hit was titrated; actives 0.57% (n = 260,000);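 active means above the screen mean plus three standard deviations and confirmed in dose response; inconclusive means results disagree or hit not tested in dose response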;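 further: Vif residues 1-94 fused to GST binding biotinylated APOBEC3G peptide 110-148; 0% = full assay without inhibitor and 100% = GST in place of GST-Vif; retest series ran down from 100 µM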
ALR inh: inhibitors of human ALR sulfhydryl oxidase, primary screen, biochemical, H2O2 detection, HRP-luminol luminescence, single point. FAD-linked sulfhydryl oxidase ALR (Homo sapiens), P55789. AID 485317, 2010. purified ALR, DTT oxidation. actives 3.8% (n = 290,000). inhibition, % (concentration not given with the values);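 active means mean and each replicate at 75% or more; inconclusive means only one of the two met; inactive means neither met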;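 further: stock transfer was 7.5 nL into about 7.5 µL; 0% = neutral wells and 100% = wells with inactivated enzyme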
FGF22 binding: binders of human FGF22 protein, primary screen, FGF22 synaptogenesis inhibitor project, biophysical, thermal shift, single point. Fibroblast growth factor 22 (Homo sapiens), Q9HCT0. recombinant FGF22 thermal shift, SYPRO orange fluorescence; percent of sucrose octasulfate shift, DMSO zero. calls only at 9.99 µM. actives 1.5% (n = 340,000). AID 651658, 2012;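 active means melting point raised past a set limit in the mean and every replicate; inconclusive means no clear call; three in four hits are not shown here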
MLL AF4-AF9 inh: inhibitors of AF4 peptide binding to AF9, primary screen, biochemical, AlphaScreen, biotin-AF4 peptide, FLAG-AF9, single point; Protein AF-9 (Homo sapiens), P42568; inhibition, % at 10 µM; actives 0.47% (n = 350,000);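 active means every replicate reaching a set inhibition limit, whatever the replicate mean, cut at about 25% in these data; inconclusive means mean inhibition reaches that limit but some replicates miss it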;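 further: 0% = plate neutral control median and 100% = total signal loss; the record names both 10 and 1 µM as test concentration; the first replicate is given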
Target sequence (P42568 whole entry, looked up): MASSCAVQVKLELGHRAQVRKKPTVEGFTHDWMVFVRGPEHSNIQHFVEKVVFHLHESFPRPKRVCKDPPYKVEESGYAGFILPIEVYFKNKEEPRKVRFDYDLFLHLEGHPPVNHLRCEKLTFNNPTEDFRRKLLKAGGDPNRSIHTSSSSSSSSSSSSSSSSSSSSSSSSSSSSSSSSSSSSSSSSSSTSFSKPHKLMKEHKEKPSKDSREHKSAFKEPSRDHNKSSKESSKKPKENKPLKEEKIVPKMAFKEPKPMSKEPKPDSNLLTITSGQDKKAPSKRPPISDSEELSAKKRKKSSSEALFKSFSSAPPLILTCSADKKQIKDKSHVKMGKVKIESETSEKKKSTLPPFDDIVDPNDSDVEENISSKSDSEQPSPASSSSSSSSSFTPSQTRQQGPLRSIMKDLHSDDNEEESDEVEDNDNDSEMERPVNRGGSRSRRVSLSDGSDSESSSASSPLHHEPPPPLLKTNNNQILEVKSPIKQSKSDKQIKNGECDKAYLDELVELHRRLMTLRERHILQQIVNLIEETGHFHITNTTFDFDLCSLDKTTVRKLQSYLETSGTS
rRNA inh HTS: reduced GFP signal of wild-type E. coli, primary screen, bacterial rRNA inhibitor project, GFP/RFP fluorescence, OD600, single point; actives 1.6% (n = 350,000); GFP signal change (wild-type ribosome), % (test concentration not listed); E. coli WT GFP vs humanized-ribosome RFP mutants, 24 h; hits give low values; DMSO median 0, no signal -100;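 active means significant combined selectivity score with lowered wild-type GFP, culture density cut under 30%, mutant RFP and density less affected; inactive means any of these conditions unmet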; further: one replicate is shown; some compounds called inactive have numbers as strong as hits
rRNA inh HTS OD600: recorded beside rRNA inh HTS, whose call it bears; OD600 change, %; measured here: OD600 growth;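 optical density of the mix in the first replicate; 0 = DMSO median and -100 = no signal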
rRNA inh HTS RFP: also measured in rRNA inh HTS; calls as there; RFP signal change, %; measured here: RFP humanized mutant strains;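 first replicate; 0 = DMSO median and -100 = no signal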
Active calls of the source: *; i = inactive; ? = inconclusive; . = not tested or not shown; + = active, no number.

SMILES | HNF4A DNA FP | Ecoli growth | Vif TR-FRET | ALR inh | FGF22 binding | MLL AF4-AF9 inh | rRNA inh HTS | rRNA inh HTS OD600 | rRNA inh HTS RFP
O=C(COC(=O)c1ccccc1)Nc1ccc(Cl)cc1C(=O)c1ccccc1 | -1.9 | 0.68 | . | -13 | . | . | . | . | .
O=C1NC(=O)N(c2ccc(F)cc2)C(=O)/C1=C/c1ccc(N2CCOCC2)cc1 | -0.3 | 0.68 | 0% | 59 | i | -2.6 | 25 | 25 | 11
CC(=NCc1ccco1)c1c(O)n(-c2ccccc2C)c(=O)[nH]c1=O | -4.0 | 0.65 | 4% | 1 | i | -2.1 | 13 | 3 | 1.9
O=C(OCc1ccccc1)N1CCC2CC1c1cc(N3Cc4ccccc4-n4nncc4C3)ccc12 (stereo unspecified) | -0.8 | . | -4% | . | i | 5.5 | 13 | 3 | -0.9
CCC1(CC)C(=O)N(Cc2ccccc2)C(=O)N(Cc2ccccc2)C1=O | -1.2 | 0.66 | 5% | 1 | . | . | 1 | 8 | -2.4
COc1ccc(CN2CCN(c3ccccc3F)CC2)c(OC)c1 | . | 0.65 | 5% | -13 | . | . | . | . | .
CCOC(=O)[C@]12Cc3ccccc3[C@H]1N(Cc1ccccc1)C(=O)c1cc(OC)ccc12 | -1.5 | . | . | . | i | 0.6 | -2 | 1 | 8.0
O=P(N1CCCCCC1)(N1CCCCCC1)N1CC1 | -3.7 | 0.67 | 1% | . | i | -0.1 | . | . | .
COc1cc2c(cc1OC)-c1c(OC)c(OC)cc3c1[C@H](C2)N(C)CC3 | 2.2 | . | 2% | -16 | i | 9.7 | -25 | -32 | 19
Cc1ccsc1C(=O)C1CCCN(Cc2cccc(-n3cccn3)c2)C1 (stereo unspecified) | 1.3 | 0.66 | -5% | -10 | i | 11 | -8 | -8 | -4.2
O=C1CNC[C@H]2[C@H](c3ccc(Br)cc3)[C@H](CO)N12 | . | . | . | . | i | -4.9 | 3 | -2 | -3.7
COc1ccc(NC2=NCC(C)S2)cc1 (stereo unspecified) | 0.9 | 0.73 | -7% | -8 | i | -2.7 | 14 | 12 | 2.8
CCCCc1ccc(C(=O)O)nc1 | -2.6 | 0.61 | . | 2 | i | 1.1 | -12 | -24 | -5.4
CN1C(=O)N(C)C(=O)C2(Cc3c(nc4ccccn4c3=O)N3CCc4ccccc4C32)C1=O (stereo unspecified) | 1.4 | 0.68 | 28% | . | . | . | . | . | .
CC(C)C/C(=N/O)c1cn(C)c2ccccc12 | 2.0 | . | ? | . | i | -0.8 | -21 | -41 | -2.9
CC(Oc1ccc(-c2ccccc2)cc1)C(=O)O (stereo unspecified) | 4.0 | 0.71 | 1% | -1 | . | . | . | . | .
COc1cc2c(cc1OC)C(C1c3cc4c(cc3CCN1C)OCO4)OC2=O (stereo unspecified) | -0.1 | 0.64 | . | 9 | i | -2.1 | -5 | -2 | -2.0
COc1ccccc1N1C(=O)NC(=O)C2(Cc3cc(C)ccc3N(C)C2)C1=O (stereo unspecified) | -2.0 | 0.68 | 3% | -1 | . | . | . | . | .
COc1cc2c(cc1OC)[C@H]1C(=O)c3ccc4c(c3O[C@H]1CO2)C[C@@H](C(C)(C)O)O4 | -1.5 | . | . | -23 | i | 4.7 | -2 | -3 | -2.8
C/C(=N\N1CCCCCC1)c1c(O)n(C)c(=O)n(C)c1=O | . | 0.68 | -9% | -5 | . | . | . | . | .
COC(=O)[C@H]1[C@H](CO)[C@H]2Cn3c(ccc(-c4ccc(F)cc4)c3=O)[C@@H]1N2C(=O)c1ccccc1F | . | . | . | . | i | 0.6 | -4 | 1 | -0.3
CCOC(=O)[C@]12Cc3cc(OC)ccc3[C@H]1N(C1CCCCC1)C(=O)c1cc(OC)ccc12 | 1.1 | . | . | . | i | -22 | -53 | -79 | -18
CCOc1ccc(N=Cc2c(O)n(Cc3ccccc3)c(=S)[nH]c2=O)cc1 | 2.0 | 0.73 | -28% | . | i | -0.2 | 13 | 14 | 17
CN1C(=O)C(C2(C#N)CCCCC2)C(=O)N(C)C1=O | 1.0 | 0.69 | 23% | -10 | . | . | . | . | .
CCOc1ccc(NC(=O)N2C[C@H]3C[C@@H](C2)c2cccc(=O)n2C3)cc1 | 0.6 | 0.71 | . | -8 | i | -1.7 | 6 | 2 | -11
O=C(c1ccco1)c1cn(Cc2ccc(Cl)cc2)c2ccccc12 | 0.2 | 0.79 | 17% | 5 | . | . | . | . | .
c1ccc2c(CCNCc3ccc4c(c3)OCO4)c[nH]c2c1 | -2.7 | 0.64 | 13% | 3 | . | . | . | . | .
O=C(c1ccc(C(F)(F)F)cc1)C1CCCN(Cc2ccncc2)C1 (stereo unspecified) | -1.6 | 0.67 | . | -5 | i | 2.2 | -7 | 2 | 1.8
Cc1cccc(-c2nc3ccc(C(=O)N4CCC5(CC4)OCCO5)cc3nc2-c2cccc(C)c2)c1 | -1.9 | 0.69 | -1% | -8 | i | 10 | 12 | 4 | 0.9
CCc1cccc2c(C#N)cn(CC(=O)N3CCOCC3)c12 | -2.0 | 0.7 | -3% | . | . | . | . | . | .

The final two compounds of the section above lead into the next.
SMILES | HNF4A DNA FP | Ecoli growth | Vif TR-FRET | ALR inh | FGF22 binding | MLL AF4-AF9 inh | rRNA inh HTS | rRNA inh HTS OD600 | rRNA inh HTS RFP
Cc1cccc(-c2nc3ccc(C(=O)N4CCC5(CC4)OCCO5)cc3nc2-c2cccc(C)c2)c1 | -1.9 | 0.69 | -1% | -8 | i | 10 | 12 | 4 | 0.9
CCc1cccc2c(C#N)cn(CC(=O)N3CCOCC3)c12 | -2.0 | 0.7 | -3% | . | . | . | . | . | .
CSc1ccc(C(=O)C2CCCN(CCCn3cccn3)C2)cc1 (stereo unspecified) | -0.4 | 0.7 | -15% | 1 | . | 0.8 | 13 | 12 | -3.2
CC(C)N1CCN(c2ccc(O)cc2)CC1 | -2.3 | 0.7 | . | . | i | -7.2 | 11 | -3 | -0.7
COC(=O)[C@@H]1[C@@H](CO)[C@@H]2Cn3c(ccc(-c4cccc(F)c4)c3=O)[C@H]1N2Cc1ccccc1 | . | . | . | . | i | 0.9 | -2 | -3 | 2.1
N#Cc1ccc(-c2ccc([C@H]3[C@H](CO)N4CCCCN(C(=O)Cc5ccccc5)C[C@@H]34)cc2)cc1 | . | . | . | . | i | -1.7 | -22 | -59 | 14
Cc1cccc(N2CCC3(CC2)C(=O)NC(=O)NC3=O)c1 | 0.5 | . | -2% | . | i | 2.9 | 4 | 3 | 1.3
COc1cccc(CNCCc2ccc(F)cc2)c1 | 1.2 | 0.68 | -2% | -26 | i | 1.8 | 10 | 17 | 2.0
CNP1(NC)=NC(C(F)(F)F)=NC(C(F)(F)F)=N1 | 1.5 | 0.7 | 2% | 0 | i | -12 | 5 | 8 | 3.5
O=[N+]([O-])c1ccc(N2CCOCC2)c2ccncc12 | 0.6 | 0.7 | . | -35 | i | 1.6 | 11 | -15 | 24
O=C(C1CCC(=O)N1C1CCCCC1)N1CCC2(CC1)OCCO2 (stereo unspecified) | 0.5 | 0.7 | 0% | 0 | . | . | 11 | 10 | -2.6
Cc1oc(-c2ccccc2)nc1CN1C(=O)CN=C(c2ccccc2)c2ccccc21 | -0.2 | . | . | -10 | i | 2.3 | -38 | -61 | -3.9
Cc1ccc(S(=O)(=O)N2Cc3cc(N4CCOCC4)ccc3-n3nncc3C2)cc1 | -3.6 | . | . | . | i | 2.8 | 13 | 26 | -1.5
FC(F)(F)c1ccccc1NC1=NCCCS1 | -0.5 | 0.64 | . | 1 | i | 0.7 | 6 | 9 | 0.9
O=C(Cc1ccncc1)N1CCCCN2[C@H](CO)[C@@H](c3ccc(C#Cc4ccccc4F)cc3)[C@H]2C1 | . | . | . | . | i | 0.2 | -33 | -63 | 6.1
O=C(NCCN1CCC2(CC1)C(=O)NCN2c1ccccc1)c1ccc2ccccc2c1 | . | . | . | . | + | 11 | -7 | -3 | 8.5
O=C1OC(c2ccc(Br)cc2)=N/C1=C\N1CC2CC(C1)c1cccc(=O)n1C2 (stereo unspecified) | -0.6 | 0.64 | -7% | -6 | i | 5.9 | -18 | -20 | 0.4
COC(=O)[C@@H]1C(OC(=O)c2ccccc2)CC2CCC1N2C (stereo partly specified) | -3.2 | 0.75 | . | . | i | . | 5 | 5 | -0.7
CCOC(=O)[C@]12Cc3cc(C)ccc3[C@H]1N(CCC(=O)OC)C(=O)c1cc(OC)ccc12 | 4.9 | . | . | . | i | -0.6 | -23 | -44 | -4.3
O=c1[nH]c(=O)n(-c2cccc(F)c2)c(O)c1/C=C1\C=Nc2ccccc21 | -0.9 | 0.69 | . | 18 | i | -0.9 | 19 | 18 | 4.0
CCCC(=O)c1cc(CP(=O)(OCC)OCC)oc1C | 8.0 | 0.63 | 1% | 2 | i | -5.1 | 26 | 7 | 15
COC(=O)C1=C(c2ccc(Cl)c(C(F)(F)F)c2)C[C@@H]2CC[C@H]1N2C(=O)N1CCOCC1 | 4.5 | . | . | -6 | i | -0.5 | -12 | -6 | 0.0
CCC(=O)c1c(O)n(C2CCCCCC2)c(=O)[nH]c1=O | 6.8 | 0.7 | 6% | 0 | . | . | . | . | .
CC1CC(OC(=O)c2ccccc2)CC(C)N1C (stereo unspecified) | -0.4 | 0.71 | 5% | . | . | . | . | . | .
O=C1NCN(c2ccccc2)C12CCN(C(CCc1ccccc1)c1nnnn1Cc1ccccc1)CC2 (stereo unspecified) | -2.2 | . | . | . | i | 9.7 | 12 | 9 | 4.1
O=c1ccc2c(O)c3ccoc3cc2o1 | -3.0 | 0.62 | . | . | i | -2.1 | -18 | -26 | -5.2
CC1(C)CC[C@]2(C)CC[C@]3(C)C4C[C@@H]5OO[C@@]6(O5)C(CCCC6(C)C)[C@]4(C)CC[C@@]3(C)C2C1 (stereo partly specified) | 2.1 | 0.74 | . | -25 | . | . | . | . | .
CN(C)C(=O)Oc1ccc(OCc2cccc[n+]2C)cc1 | -0.6 | 0.71 | 13% | -2 | i | -6.4 | 9 | 5 | -4.1
CCCCCCOc1ccc(CN2CCN(CC)CC2)cc1 | 3.3 | 0.61 | 1% | -2 | . | . | . | . | .
Cc1cc(C)c(C)c(C(O)(C(=O)O)c2ccccc2)c1 (stereo unspecified) | 0.2 | . | 8% | . | . | 1.1 | 9 | 6 | 2.3
CC(=O)O[C@H]1CCC2C3CCC4=CC(=O)CCC4=C3C=C[C@@]21C (stereo partly specified) | 1.2 | 0.66 | 12% | . | i | 8.7 | -18* | -14* | 4.0*
CCOc1ccc(N2C(=O)/C(=C/c3ccc(C)o3)C(=O)NC2=S)cc1 | 21 | 0.69 | . | . | i | -1.9 | 10 | 14 | 5.3
CCN1CCN(c2cn[nH]c(=O)c2Cl)CC1 | 2.5 | 0.71 | . | -3 | i | -0.1 | 22 | 25 | 0.7
CCC(C)C12CN3CCN(CC(C)(C3)C1=O)C2 (stereo unspecified) | 1.9 | 0.73 | 1% | -4 | . | . | . | . | .

High-throughput results as filed in PubChem BioAssay.

The list is partial. The share of hits here may be higher or lower than overall.
